# RGS16-Gao = modulators of RGS16 binding to Galphao, primary screen, biochemical, human proteins, multiplexed bead flow cytometry | bead-based flow cytometry RGS16-Galphao binding, fluorescence; actives lie on both sides | binding response (% of control), % at 10 µM | hit rate 0.38% among 220,000 | AID 1441, 2008;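 active = below 25% or above 175%, edge rows of some plates excepted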;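 also: Galphao activated by GDP with aluminum fluoride before binding; 100% = wells without compound and 0% = beads without RGS; some results beyond the cut were filed as inactive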
# PKD1 kinase inh = inhibitors of human PKD1 kinase, biochemical, fluorescence polarization; Serine/threonine-protein kinase D1 (Homo sapiens), Q15139; PKD1 kinase fluorescence polarization assay; inhibition, %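 (about 10 µM by stock and volumes)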; hit rate 0.056% among 200,000; AID 797, 2007;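 active = inhibition of 50% or more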;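 also: controls were vehicle for no effect and a reference inhibitor for full effect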
# Target sequence (Q15139 whole entry, looked up): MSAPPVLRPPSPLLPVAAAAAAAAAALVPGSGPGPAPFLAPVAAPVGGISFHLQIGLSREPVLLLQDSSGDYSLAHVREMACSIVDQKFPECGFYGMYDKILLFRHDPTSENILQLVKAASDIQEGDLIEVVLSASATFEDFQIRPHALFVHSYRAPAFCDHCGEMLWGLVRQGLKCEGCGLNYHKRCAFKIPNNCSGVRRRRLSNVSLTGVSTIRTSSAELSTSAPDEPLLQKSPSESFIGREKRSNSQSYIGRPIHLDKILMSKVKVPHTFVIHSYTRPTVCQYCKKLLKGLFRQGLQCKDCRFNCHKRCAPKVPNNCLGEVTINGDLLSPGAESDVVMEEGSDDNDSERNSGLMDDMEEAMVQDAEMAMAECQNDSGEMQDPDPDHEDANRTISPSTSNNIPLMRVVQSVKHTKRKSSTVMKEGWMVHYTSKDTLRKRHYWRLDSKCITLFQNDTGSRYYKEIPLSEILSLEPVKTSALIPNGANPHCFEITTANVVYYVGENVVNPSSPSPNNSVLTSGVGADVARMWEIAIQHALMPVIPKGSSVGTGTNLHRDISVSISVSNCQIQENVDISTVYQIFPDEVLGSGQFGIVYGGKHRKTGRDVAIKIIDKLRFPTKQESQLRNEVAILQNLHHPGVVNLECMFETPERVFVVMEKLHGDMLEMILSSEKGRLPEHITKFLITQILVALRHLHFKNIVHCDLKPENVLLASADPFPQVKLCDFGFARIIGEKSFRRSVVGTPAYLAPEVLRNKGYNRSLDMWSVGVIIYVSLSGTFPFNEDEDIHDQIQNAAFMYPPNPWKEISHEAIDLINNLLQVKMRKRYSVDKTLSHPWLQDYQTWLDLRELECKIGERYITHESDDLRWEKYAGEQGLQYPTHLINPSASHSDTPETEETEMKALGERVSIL
# GALR2 ag = GALR2 receptor agonists, primary screen, cell-based; GALR2-expressing cells, agonist activation read-out; activation, %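 (tested at 5 µM)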; hit rate 0.48% among 140,000; AID 803, 2007;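 active = above mean plus 3 SD of all compounds, about 5% in these data, not always enough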;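 also: 0% = vehicle buffer wells and 100% = reference agonist at full effect; tested in CHO reporter cells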
# HSV augment = enhancers of HSV replication in host cells, fold increase, host cell viability | AID 1956, 2009 | hit rate 0.005% among 220,000 | maximum fold increase | HSV replication augmentation in cells;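 active = peak rise of 1.5-fold or more in the series; tested in PC3 cells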;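 also: first round at 10 µM; read as green reporter fluorescence; hits show the peak of a series up to 25 µM; 1 = signal of infected wells without compound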
# INS promoter inh = inhibitors of insulin promoter-driven GFP, primary screen, imaging, TRM-6 cells (human fetal islet line), eGFP reporter, cell count; AID 1273, 2008; inhibition, % at 2 µM; hit rate 0.9% among 130,000; reporter expression induced with tamoxifen;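 active = inhibition above the mean plus 3 SD, with well images judged a real hit on visual review, cut at about 60% in these data, passing the limit was not always enough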
# INS promoter inh cell count = second read-out of INS promoter inh, no call of its own (marks repeat the call); normalized cell count, %; measured here: cell count, toxicity; reference of the scale not given here;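 cells exposed to compound for 48 h; stained nuclei by imaging scaled within each plate; lower means fewer cells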
# HSV augment primary fold = further read-out of HSV augment, marked with its call; fold increase; compound at 10 µM; measured here: primary screen fold increase 10 uM; tested in PC3 cells;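 GFP signal in the first replicate; 1 = infected wells without compound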
# Numbers without * were called inactive; i = inactive; / = no result given.
SMILES,RGS16-Gao,PKD1 kinase inh,GALR2 ag,HSV augment,HSV augment primary fold,INS promoter inh,INS promoter inh cell count
CNC(=S)N1CCn2cccc2C1c1cc(OC)c(OC)c(OC)c1 (stereo not given),104,0,/,i,0.99,9,116
CCN(CC)C(=O)Cn1cc(C(=O)C(=O)N2CCCc3ccccc32)c2ccccc21,102,-5,/,/,/,-154,97
O=S(=O)(NCc1cccnc1)c1cc(Cl)ccc1Cl,99,0,-1.6,i,0.87,/,/
C=CCNCCCCOc1ccccc1,99,-4,-0.7,i,1.1,/,/
COc1ccc(C(=O)Nc2nccs2)cc1OC,100,-2,-1.8,/,/,/,/
N#Cc1cc(-c2ccc(Cl)cc2)cnc1Sc1ccccc1,1.3*,-5,-1.3,i,0.95,/,/
CC(=O)NNC(=O)CCn1nnc2ccccc21,162,7,/,i,1,/,/
Cc1ccc(NC(=O)CSC2=C(C#N)C(c3ccc4c(c3)OCO4)C3=C(CCCC3=O)N2)c(C)c1 (stereo not given),102,8,-2.5,i,0.83,/,/
Nc1ccccc1-c1nnc(SCc2ccccc2Cl)[nH]c1=O,116,-3,-3.4,i,1,-32,130
Cc1ccc(C)c(NC(=S)NCc2cccs2)c1,108,-2,-0.7,i,1,-3,107
CCOC(=O)CNc1ncnc2nc[nH]c12,99,-6,-0.8,i,0.91,-43,80
CCOC(=O)c1ccc(NS(=O)(=O)N2CCCCCC2)cc1,103,-7,-2.9,i,1,-5,192
COc1ccc(C(C)=O)cc1CSc1nc2ccccc2c(=O)n1-c1ccccc1,112,2,5.0*,i,1.1,/,/
O=C1CC(CC(=O)N/N=C/c2ccccc2[N+](=O)[O-])=NN1,103,-12,-0.2,i,0.89,10,91
CCCOC(=O)C1[C@H]2C(=O)N(C(C)c3ccc(OC)cc3)C[C@]23C=C[C@H]1O3 (stereo not given in full),105,-8,-1.4,i,0.97,29,71
COc1ccc(C2c3ccc4ccccc4c3Oc3ncn(CCN4CCOCC4)c(=N)c32)cc1 (stereo not given),100,-6,1.0,i,0.34,3,183
CCSCCC(NC1=CC(=O)CC(C)(C)C1)C(=O)O (stereo not given),108,11,0.5,i,0.97,5,98
NS(=O)(=O)c1ccc(Nc2nc(-c3ccc(F)cc3)cs2)cc1,98,-2,/,i,0.88,/,/
Cc1cccc(Nc2ccncc2S(=O)(=O)NC(=O)NC(C)C)c1,106,/,/,i,0.97,/,/
COc1ccccc1NC(=O)c1cc([N+](=O)[O-])ccc1NCCN1C(=O)CCC1=O,44,-1,/,i,0.94,/,/
CCN1C(=O)S/C(=C/c2c(OCc3ccc(C(=O)O)cc3)ccc3ccccc23)C1=O,66,3,1.7,i,0.91,-167,24
COc1cccc(-c2nn3c(-c4ccccn4)nnc3s2)c1,135,5,-1.8,i,0.8,/,/
COc1ccc([N+](=O)[O-])cc1N(CC(=O)N(C)C)S(C)(=O)=O,100,-5,/,i,0.93,/,/
CCN(CC)c1nc(SCCOC(=O)Nc2ccccc2)nc(N(CC)CC)n1,75,-4,-0.4,/,/,-54,114
COCCn1c(SCC(=O)NC(=O)NCc2ccccc2)nc2ccccc21,92,-7,0.8,i,1.1,-36,86
Cc1ccn2cc(C(=O)Nc3ccccc3N3CCOCC3)nc2c1,107,-7,-2.1,/,/,-12,105
Nc1nonc1N/N=C/c1c(O)ccc2ccccc12,106,7,/,i,0.86,33,121
CCOC(=O)Cn1nnc(-c2ccc(SC)cc2)n1,93,-5,-0.2,i,1.1,-3,60
C[n+]1ccccc1C1CCCC/C1=N\NC(N)=S (stereo not given),99,-5,/,i,0.9,/,/
Oc1c(N=NC(=S)Nc2ccccc2F)c2ccccc2n1Cc1ccc(Cl)cc1,94,-1,/,i,1.1,/,/
CC(=O)Nc1cccc(NC(=O)c2ccc(Br)cc2)c1,104,-10,/,i,0.91,/,/
CS(=O)(=O)N(Cc1ccccc1)c1ccc(C(=O)Nc2cccnc2)cc1,99,-9,-2.2,i,1.4,19,131
O=C(NCCNc1ccc([N+](=O)[O-])cc1C(F)(F)F)c1ccccc1,102,-1,-0.9,i,1,/,/
Cc1cccc(Cn2c(NCCO)nc3c2c(=O)n(C)c(=O)n3C)c1,99,-10,-1.9,i,0.93,58,100
Cn1c(=O)[nH]c(=O)c2c1nc(CN1CCN(Cc3ccccc3)CC1)n2CC(N)=O,103,3,-1.8,i,0.95,0,57
CCCCCCOC1(c2ccccc2)OC(=O)c2ccccc21 (stereo not given),102,-3,-0.2,/,/,/,/
Cc1nn(C)cc1[C@@H]1C[C@H]2CN(Cc3cccc(Cl)c3)C(=O)[C@]23CCCN13,105,-4,/,i,1.3,48,127
CCCCNC(=S)N(Cc1ccco1)Cc1cc2cc3c(cc2[nH]c1=O)OCCO3,91,-11,1.5,i,1.1,-62,84
COc1ccc(NC(=O)Cn2cccc2)c(OC)c1,84,-21,-1.0,i,1,/,/
Cc1cc2nc(SCC(=O)O)nc(C)c2cc1C,100,-18,-0.2,/,/,-25,212
O=C(CN1CCCC1=O)NC1C2CC3CC(C2)CC1C3 (stereo not given),98,-9,0.5,i,0.95,28,147
O=C(COC(=O)c1cnc(Cl)c(Cl)c1)NCCC1=CCCCC1,102,-2,/,i,0.97,/,/
C=CCN1C(=O)c2ccc(C(=O)OCC(=O)N(C)C3CCCCC3)cc2C1=O,103,2,/,i,0.96,/,/
COCCN(C(=S)Nc1ccc(Cl)cc1OC)C1CCN(C(C)=O)CC1,102,/,/,i,0.93,/,/
Cc1cc(Cl)ccc1OCC(=O)NNC(=O)c1cnccn1,102,-11,/,i,1.1,0,74
COC(C[C@H]1O[C@H]1[C@@H](O)COCc1ccccc1)OC,107,/,/,i,0.96,/,/
CSc1nc2nccc(-c3ccc(-c4ccccc4)cc3)n2n1,97,2,-1.0,i,0.66,36,151
CCn1c(C)nc2cc(C(=O)NNC(=S)NC(=O)c3ccccc3)ccc21,100,2,/,i,0.85,-7,133
COc1cccc(C(=O)Nc2c3c(nn2-c2cccc(C)c2C)CS(=O)C3)c1OC (stereo not given),99,-10,-0.2,i,0.95,/,/
COc1cc(C2C(C#N)=C(N)Oc3n[nH]c(-c4cccnc4)c32)ccc1OCC(N)=O (stereo not given),100,/,/,i,0.96,/,/
Cc1cc2ncn(CCCCOc3ccccc3)c2cc1C,101,-8,-2.9,i,0.96,-7,152
COc1ccc(C(=O)N2CC3(CC(c4ccc(Cl)cc4)=NO3)C[C@H]2C(=O)NCC(N)=O)cc1 (stereo not given in full),103,3,-2.0,i,0.79,/,/
O=C(CCc1n[nH]c(=O)[nH]c1=O)N1CCOCC1,100,-11,-1.4,i,0.96,/,/
CCOc1ccc2c(c1)C(=NNC(=O)c1ccncc1)c1cc(OCC)ccc1-2,103,-10,1.0,i,0.78,/,/
COc1ccc(-c2nnc3n2-c2ccccc2SC3)cc1OC,111,15,-0.5,i,1.1,/,/
COc1ccc2[nH]c(C(=O)Nc3ccc(C)c(F)c3)cc2c1,102,/,/,i,0.99,/,/
Fc1ccccc1CSc1nnc(Cn2cnc3ccccc32)n1-c1ccccc1,101,-10,-1.6,i,0.79,3,86
CCn1ccnc1CN(C)C(=O)CCc1nnc(CCC2CCCCC2)o1,98,2,/,i,1.2,/,/
CCOc1ccc(N(CC(=O)NCc2ccc(OC)cc2)S(=O)(=O)c2c(C)noc2C)cc1,107,-14,-2.8,i,0.84,/,/
CCN(C(=O)c1ccc(NC(C)=O)cc1)c1ccccc1C,110,-5,-0.6,i,1,30,97

# Next part; the last 3 above are carried over.
SMILES,RGS16-Gao,PKD1 kinase inh,GALR2 ag,HSV augment,HSV augment primary fold,INS promoter inh,INS promoter inh cell count
CCn1ccnc1CN(C)C(=O)CCc1nnc(CCC2CCCCC2)o1,98,2,/,i,1.2,/,/
CCOc1ccc(N(CC(=O)NCc2ccc(OC)cc2)S(=O)(=O)c2c(C)noc2C)cc1,107,-14,-2.8,i,0.84,/,/
CCN(C(=O)c1ccc(NC(C)=O)cc1)c1ccccc1C,110,-5,-0.6,i,1,30,97
CCN(CC)S(=O)(=O)c1ccc2oc(Nc3ccc4c(c3)OCCO4)nc2c1,104,4,-4.2,i,0.89,33,57
CCCN(CCC)c1nc(C#N)nc(N(CCC)CCC)n1,29,1,/,i,0.96,47,95
CSc1nc(C)cc(OCC(=O)N/N=C/c2ccccc2O)n1,130,-2,-0.6,i,0.56,/,/
CCC(C)c1ccc(NC(=S)NN2CCOCC2)cc1 (stereo not given),106,-8,-1.3,i,1.1,/,/
O=c1c2ccccc2nc(COc2ccccc2)n1/N=C/c1cn[nH]c1-c1ccccc1,97,-5,-0.9,i,0.79,-79,163
CC(C)c1ccc(-c2nc(N3CCCC3)nc3n[nH]c(N)c23)cc1,108,-2,6.2*,i,0.7,/,/
COc1ccc(Cl)cc1N(CC(=O)Nc1ccccc1SC)S(C)(=O)=O,103,3,-0.1,i,0.68,-129,82
O=C(CSCC(=O)N1CCCCC1)Nc1nc(-c2cccs2)cs1,106,-3,-1.4,i,0.92,/,/
CC(C)c1ccc(NC(=S)N2CCCC(c3ccc(F)cc3)=N2)cc1,105,/,/,i,0.81,/,/
C=CCN1C(=O)C(Cc2cccc(C)c2)SC1=Nc1ccc(C(=O)O)cc1 (stereo not given),94,12,-1.0,i,1.1,27,132
COc1ccc(NC(=O)c2ccccc2-c2ccccc2)cc1,100,1,/,i,0.87,/,/
Cc1ccc(S(=O)(=O)NCCC(=O)Nc2nnc(C)s2)cc1,108,4,-0.7,i,0.79,-43,77
COc1ccc(CCN2C(=NC(=O)C(C)C)SC3CS(=O)(=O)CC32)cc1OC (stereo not given),96,/,/,i,0.5,/,/
CCc1ccc(C(=O)COC(=O)c2cncc(Br)c2)cc1,102,1,/,i,1,/,/
CCOC(=O)c1c(C)[nH]c(C(=O)OC/C(O)=C(\C#N)c2nc3ccccc3[nH]2)c1C,99,-11,-0.9,i,0.97,-79,133
CCOC(=O)CN(Cc1sccc1C)C(=O)Nc1ccc(OCC)cc1,104,1,-0.9,i,0.96,-10,105
Cc1ccc(S(=O)(=O)Nc2ccc(-c3csc(-c4ccccc4)n3)cc2)cc1,105,-3,-2.0,i,0.92,-17,73
C#CCSc1nnnn1-c1ccc(Br)c(C)c1,99,/,/,i,1.2,/,/
N#Cc1ccc(C(=O)OCC(=O)Nc2ccc(S(N)(=O)=O)cc2)cc1,98,/,/,i,0.87,/,/
O=C(NCCC1=CCCCC1)c1cnsn1,100,-7,-2.1,i,1.1,-3,141
Cc1ccc2nc(-c3ccccn3)cc(C(=O)Nc3ccc4c(c3)OCO4)c2c1,103,-6,/,i,1.2,/,/
O=C(O)c1ccccc1C(=O)NNc1ccc(F)cc1F,105,-5,/,/,/,-38,92
O=C(Nc1ccc(-c2nc3ccccc3[nH]2)cc1)C1CCCO1 (stereo not given),101,-9,-1.9,i,1,-36,173
Cc1noc(NS(=O)(=O)c2ccc(NC(=O)c3cnc4n(c3=O)CCS4)cc2)c1C,112,-6,-1.2,i,0.92,-219,64
CC(=O)Nc1ccc(NC(=O)C(Cc2ccccc2)NC(=O)C2CCCCC2)cc1 (stereo not given),102,-6,-0.5,i,0.94,64*,69*
Cc1ccccc1-c1nn(-c2ccc(F)cc2F)cc1CNCCCO,102,-6,/,i,0.87,-9,149
CCOc1ccc(Oc2ccc(S(=O)(=O)N3CCOCC3)cc2N)cc1,103,0,/,i,1,/,/
CCCC(=O)N(c1ccc(F)cc1)C1C=CS(=O)(=O)C1 (stereo not given),99,-6,-1.1,i,0.94,0,93
Cc1cc(C)nc(NC(=S)Nc2ccc(F)cc2F)c1,100,-9,/,i,1,-79,129

# Random excerpt: 2 records from the list
SMILES,RGS16-Gao,PKD1 kinase inh,GALR2 ag,HSV augment,HSV augment primary fold,INS promoter inh,INS promoter inh cell count
COc1cccc(-c2nn3c(-c4ccccn4)nnc3s2)c1,135,5,-1.8,i,0.8,/,/
COc1ccc(C2c3ccc4ccccc4c3Oc3ncn(CCN4CCOCC4)c(=N)c32)cc1 (stereo not given),100,-6,1.0,i,0.34,3,183

# Full records, quoted from the list. Order of values: RGS16-Gao	PKD1 kinase inh	GALR2 ag	HSV augment	HSV augment primary fold	INS promoter inh	INS promoter inh cell count
# Profile of `O=C(O)c1ccccc1C(=O)NNc1ccc(F)cc1F` = 105	-5	/	/	/	-38	92
# Profile of `CCOc1ccc(Oc2ccc(S(=O)(=O)N3CCOCC3)cc2N)cc1` = 103	0	/	i	1	/	/
